# Arbovirus anti: antivirals against arbovirus infection, primary screen, cell-based, full library, 10K replicate subset; inhibition, % at 10 µM; hit rate 0.37% among 200,000; arbovirus infection cell-based antiviral screen;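 active = inhibition from about 30%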;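 note: bluetongue infection of BSR cells; cell survival read as ATP light after 72 h; 0% = infected wells without compound and 100% = uninfected wells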
# YopH inh: YopH tyrosine phosphatase inhibitors, primary screen, biochemical, fluorescence Ex485/Em525. hit rate 0.16% among 140,000. AID 898, 2007. YopH tyrosine phosphatase [Yersinia enterocolitica]. inhibition, %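 (about 10 µM by stock and volumes)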;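 active = inhibition of 50% or more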;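 note: controls were vehicle for no effect and minimum signal wells for full effect; inactives centre near -20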
# Mtb bLac sens: beta-lactam sensitization of Mtb H37Rv, H37Rv; M. tuberculosis H37Rv growth with meropenem, percent inhibition; hits of this screen are not shown here; inhibition, % at 25 µM; hit rate 0.27% among 330,000;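 active = about 74% or more and at least 40 points above the plate without the antibiotic, then above 30% in a dose series; inconclusive = first-round hits that could not be retested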;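 note: growth measured after seven days incubation then overnight dye step; 0% = bacteria only wells and 100% = bacteria with antibiotic; twin plates without the antibiotic show which effects depend on it; some results filed as inactive read as strong as hits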
# Mtb growth: M. tuberculosis H37Rv growth inhibitors, H37Rv strain (AID 1626); M. tuberculosis H37Rv growth inhibition; higher % means a stronger effect; inhibition, % at 10 µM; hits with a dose series show IC50 in µM; hit rate 0.95% among 220,000;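 active = confirmed in a dose series; inconclusive = inhibition above 80% but not taken into the dose series; inactive = below 80% or under 30% at every dose of the series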;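 note: bacteria incubated seven days before Alamar blue readout; 0% = bacteria only wells and 100% = bacteria with antibiotic wells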
# RecA splice inh: Mtb RecA intein splicing inhibitors, primary screen, biochemical, fluorescence, HTS; cell-free RecA intein splicing; hit rate 0.75% among 290,000; Protein RecA (Mycobacterium tuberculosis (strain ATCC 25618 / H37Rv)), P9WHJ3; inhibition, %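 (about 9 µM by stock and volumes)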; in the data active = inhibition above about 30%; inconclusive = no clear call, values can overlap the other calls;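 note: 0% = vehicle wells and 100% = reference inhibitor control wells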
# Target sequence (P9WHJ3 whole entry, looked up, canonical isoform): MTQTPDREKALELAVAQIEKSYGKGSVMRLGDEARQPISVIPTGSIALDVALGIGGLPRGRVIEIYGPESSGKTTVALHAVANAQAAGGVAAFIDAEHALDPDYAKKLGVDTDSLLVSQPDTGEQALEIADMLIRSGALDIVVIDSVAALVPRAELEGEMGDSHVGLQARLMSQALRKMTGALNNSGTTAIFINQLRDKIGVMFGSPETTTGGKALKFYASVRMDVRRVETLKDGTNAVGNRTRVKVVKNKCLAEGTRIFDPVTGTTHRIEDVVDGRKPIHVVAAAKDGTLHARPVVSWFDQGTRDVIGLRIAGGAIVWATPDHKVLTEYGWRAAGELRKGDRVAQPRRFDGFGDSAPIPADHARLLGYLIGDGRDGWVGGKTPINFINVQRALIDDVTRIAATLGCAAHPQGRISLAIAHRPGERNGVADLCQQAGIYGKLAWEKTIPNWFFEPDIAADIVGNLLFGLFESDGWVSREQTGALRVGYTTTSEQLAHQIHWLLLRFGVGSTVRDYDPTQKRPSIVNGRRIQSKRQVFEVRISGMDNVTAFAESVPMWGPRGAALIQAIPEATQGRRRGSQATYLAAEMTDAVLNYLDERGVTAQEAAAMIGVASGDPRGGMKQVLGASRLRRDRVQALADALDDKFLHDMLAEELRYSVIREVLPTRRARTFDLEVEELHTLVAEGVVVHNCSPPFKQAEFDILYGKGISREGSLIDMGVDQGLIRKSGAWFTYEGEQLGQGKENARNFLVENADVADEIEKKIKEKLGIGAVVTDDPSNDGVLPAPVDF
# Arbovirus anti repeat: recorded beside Arbovirus anti, whose call it bears; inhibition, %; measured here: 10K subset replicate screen; many hits read low in the repeat;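 first of two repeat runs on a subset; 0% = infected and 100% = uninfected wells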
# Starred values were filed as active, the others as inactive; ? = inconclusive; · = not tested or not shown.
# Start of the listing, in advance, 14 compounds:
SMILES,Arbovirus anti,YopH inh,Mtb bLac sens,Mtb growth,RecA splice inh,others
CCOC(=O)CSc1nc2c(sc(=S)n2-c2ccccc2OC)c(=O)n1-c1ccccc1OC,·,·,9,·,-1.9,
CCOC(=O)C(CC)Sc1ncnc2c1nnn2-c1ccc(F)cc1 (configuration not stated),-1,-23,-3,10%,37*,
COc1ccc(N(CC(=O)Nc2cccc(C(F)(F)F)c2)S(=O)(=O)c2c(C)[nH]c(=O)[nH]c2=O)cc1,·,·,-3,·,7.8,
COc1ccccc1N1CCN(C(CNC(=O)Oc2ccccc2)c2cccnc2)CC1 (configuration not stated),2,-39,-18,6%,4.3,
Cc1ccc(NS(=O)(=O)c2ccc(N3CCN(c4ccc(O)cc4)CC3)c([N+](=O)[O-])c2)c(C)c1,-36,3,98,72%,8.8,
Cc1csc(NC(=O)CSc2ccc(-c3ccccc3)nn2)n1,9,·,2,-4%,14,
CCCCn1c(N)c(N(CCOC)C(=O)C2CCN(S(=O)(=O)c3ccc(C)cc3C)CC2)c(=O)[nH]c1=O,·,·,-9,·,-1.1,
COc1cc(C(c2sc3nc(C)nn3c2O)N2CC(C)OC(C)C2)cc(OC)c1OC (configuration not stated),-3,-37,4,0%,-1.4,Arbovirus anti repeat=0
COc1ccc(C2CC(c3ccccc3OC(=O)/C=C/c3ccccc3)=NN2C(C)=O)cc1 (configuration not stated),·,·,35,2%,-0.4,
O=C(O)c1ccc(-n2nnnc2SCc2ccccc2F)cc1,4,·,-4,-17%,0.9,Arbovirus anti repeat=3
CCCCN1C(=O)CN(CCc2ccccc2)C(=O)C1c1ccc(OC)cc1 (configuration not stated),-1,-26,-1,-2%,0.8,
COc1ccc(OC)c(NC(=O)NNC(=O)CCCOc2ccc(Cl)cc2C)c1,1,·,0,-1%,4.5,
CC(C)c1ccc(NC(=O)c2csnn2)cc1,5,-21,0,-1%,1.7,
Cc1ccc(C(=O)N/C(=C\c2ccccc2)C(=O)NCc2ccncc2)cc1,·,·,-7,·,0.0,

# The listing, from the first entry:
SMILES,Arbovirus anti,YopH inh,Mtb bLac sens,Mtb growth,RecA splice inh,others
CCOC(=O)CSc1nc2c(sc(=S)n2-c2ccccc2OC)c(=O)n1-c1ccccc1OC,·,·,9,·,-1.9,
CCOC(=O)C(CC)Sc1ncnc2c1nnn2-c1ccc(F)cc1 (configuration not stated),-1,-23,-3,10%,37*,
COc1ccc(N(CC(=O)Nc2cccc(C(F)(F)F)c2)S(=O)(=O)c2c(C)[nH]c(=O)[nH]c2=O)cc1,·,·,-3,·,7.8,
COc1ccccc1N1CCN(C(CNC(=O)Oc2ccccc2)c2cccnc2)CC1 (configuration not stated),2,-39,-18,6%,4.3,
Cc1ccc(NS(=O)(=O)c2ccc(N3CCN(c4ccc(O)cc4)CC3)c([N+](=O)[O-])c2)c(C)c1,-36,3,98,72%,8.8,
Cc1csc(NC(=O)CSc2ccc(-c3ccccc3)nn2)n1,9,·,2,-4%,14,
CCCCn1c(N)c(N(CCOC)C(=O)C2CCN(S(=O)(=O)c3ccc(C)cc3C)CC2)c(=O)[nH]c1=O,·,·,-9,·,-1.1,
COc1cc(C(c2sc3nc(C)nn3c2O)N2CC(C)OC(C)C2)cc(OC)c1OC (configuration not stated),-3,-37,4,0%,-1.4,Arbovirus anti repeat=0
COc1ccc(C2CC(c3ccccc3OC(=O)/C=C/c3ccccc3)=NN2C(C)=O)cc1 (configuration not stated),·,·,35,2%,-0.4,
O=C(O)c1ccc(-n2nnnc2SCc2ccccc2F)cc1,4,·,-4,-17%,0.9,Arbovirus anti repeat=3
CCCCN1C(=O)CN(CCc2ccccc2)C(=O)C1c1ccc(OC)cc1 (configuration not stated),-1,-26,-1,-2%,0.8,
COc1ccc(OC)c(NC(=O)NNC(=O)CCCOc2ccc(Cl)cc2C)c1,1,·,0,-1%,4.5,
CC(C)c1ccc(NC(=O)c2csnn2)cc1,5,-21,0,-1%,1.7,
Cc1ccc(C(=O)N/C(=C\c2ccccc2)C(=O)NCc2ccncc2)cc1,·,·,-7,·,0.0,
O=C(COc1ccccc1)N(Cc1ccco1)C1CCS(=O)(=O)C1 (configuration not stated),-3,-18,4,-6%,0.8,
CCN(CC)c1ccc(/C=C2\C(=N)N3N=C(CC(=O)N4CCOCC4)SC3=NC2=O)cc1,·,·,1,·,-14,
OC(COc1ccc2c(c1)CCC2)CN1CCN(c2cccc(Cl)c2)CC1 (configuration not stated),-10,-15,5,19%,7.3,
COC(=O)c1cc(NC(=O)c2cc(-c3ccccc3Cl)oc2C(F)(F)F)ccc1N1CCOCC1,·,·,51,12%,4.9,
CCCSc1cc(N2CCCC2)nc(-c2ccccc2)n1,3,-30,2,7%,-0.4,
COc1ccc(/C=C/c2nc3ccccc3n2Cc2ccccc2OC)cc1,-21,-13,86,35%,17,
Cc1cc(Cl)ccc1OC(C)C(=O)NCCCn1ccnc1 (configuration not stated),-4,·,2,-5%,1.5,
O=C(Nc1ccccc1)c1cc(N2CCOCC2)nc2ccccc12,1,-52,0,7%,-3.5,
CCOC(=O)c1[nH]c2ccccc2c1NC(=O)CC(C)(C)C,-2,-40,-3,-4%,-1.2,Arbovirus anti repeat=0
COc1ccc(N2CCN(C(=O)c3ccc(NS(=O)(=O)c4ccc(F)cc4)cc3)CC2)cc1,14,-20,1,9%,0.9,
NCCCN1CCN(c2ccccc2)CC1,·,·,-3,-3%,-0.7,
COc1ccc(C(=O)OCC(=O)NCc2ccco2)cc1OC,-2,28,-15,-11%,1.8,
OCCCNC(c1ccccc1)c1ccc(O)cc1 (configuration not stated),5,7,-5,-3%,-1.6,
COc1cccc(NC(=O)CSc2nccn(-c3ccc4c(c3)OCCO4)c2=O)c1,·,·,38,·,4.3,
CC(=O)N/N=C/c1ccc(OCCOc2ccc(Br)cc2)cc1,6,-15,13,11%,-1.1,
CN=C1SC(C(=O)Nc2ccccc2Cl)CC(=O)N1c1ccc(OC(F)(F)Cl)cc1 (configuration not stated),-9,·,-12,-1%,0.5,

# Part of the list above in order of SMILES length, high to low.
SMILES,Arbovirus anti,YopH inh,Mtb bLac sens,Mtb growth,RecA splice inh,others
COc1ccc(N2CCN(C(=O)c3ccc(NS(=O)(=O)c4ccc(F)cc4)cc3)CC2)cc1,14,-20,1,9%,0.9,
Cc1cc(Cl)ccc1OC(C)C(=O)NCCCn1ccnc1 (configuration not stated),-4,·,2,-5%,1.5,
NCCCN1CCN(c2ccccc2)CC1,·,·,-3,-3%,-0.7,

# The results go on:
SMILES,Arbovirus anti,YopH inh,Mtb bLac sens,Mtb growth,RecA splice inh,others
CCOC(=O)c1cnc2ccc(OCC)cc2c1NCCCN1CCOCC1,·,·,0,·,-1.4,
Cc1cccn2cc(CNS(=O)(=O)c3cccc(F)c3)nc12,10,3,-2,8%,0.2,
CC(C)C[C@H]1CN=C(Nc2ccccc2)N1CC1CCC(C)CC1 (some centres not stated),·,·,7,·,3.6,
Cc1nc2ccccc2nc1SCC(=O)c1ccccc1,10,-3,-3,9%,2.2,
COc1cc2c(cc1OC)C(COc1ccccc1OC)N(C(=O)C(C)(C)C)CC2 (configuration not stated),·,·,3,·,7.3,
O=C(Nc1ccc(Cl)c(Cl)c1)N(CCCN1CCOCC1)Cc1cccs1,-13,-49,4,3%,-0.7,
O=C(NCc1ccc(F)cc1)N1CCc2ccccc2C1,·,·,-6,·,-2.7,
CN(C)S(=O)(=O)n1cnc(-c2ccccc2)c1-c1ccccc1,6,-65,-10,3%,-2.2,
CC1CCN(S(=O)(=O)c2cc(F)ccc2CN2C(=O)c3cccnc3C2=O)CC1,·,·,-5,·,-1.3,
Cc1ccccc1Nc1cccc2nonc12,-8,-13,-1,23%,-39,
Cc1ccc(N=C2NC(=O)/C(=C\c3ccsc3)S2)c(C)c1,-9,-33,94,?,2.4,
CC1(C)CC2CC(C)(CN2C(=O)COC(=O)c2n[nH]c(=O)c3ccccc23)C1 (configuration not stated),5,-38,-1,4%,-1.2,
N#CCSc1ncnc2sc3c(c12)CCC3,0,-32,-11,2%,3.0,
Nc1nnnn1CC(=O)N/N=C/c1cc([N+](=O)[O-])ccc1O,-3,·,0,-10%,6.6,
CCC(=O)N1CCc2cc(S(=O)(=O)N3CCN(c4cc(C)ccc4C)CC3)ccc21,·,·,-8,·,-5.1,
COC(=O)c1ccc(NC(=O)CSc2nc3ccc(N4C(=O)C5C6C=CC(C6)C5C4=O)cc3s2)cc1 (configuration not stated),18,-21,100,?,4.7,
O=P(O)(O)Oc1ccccc1P(=O)(c1ccccc1)c1ccccc1,·,·,0,·,-1.0,
COc1ccc(/C(=C\Nc2ccc(C)c(C)c2)C(C)=O)cc1OC,9,·,-5,32%,4.0,
COc1ccccc1NC(=O)c1ccc(Br)o1,1,-12,17,-2%,1.1,
Cc1cc(N2CCOCC2)nc2ccc(Cl)cc12,·,·,-4,·,1.4,
CCCCOc1ccc(NC(=S)Nc2cc(C)nc(SCCCC)n2)cc1,13,-18,14,?,-0.8,
CCCCNC(=S)N1CCN(c2ccc(C(C)=O)cc2)CC1,·,·,4,12%,-0.3,
CCC(=O)NC(=S)Nc1ccc(N2CCN(C(=O)c3ccc(Cl)cc3)CC2)cc1,-7,·,96,80%,1.7,
COc1cc2c(cc1NC(=S)Nc1cccc(C)c1)oc1ccccc12,-4,-3,77,?,2.2,
CCOc1ccc(CCNC(=O)COC(=O)CCC(=O)c2cccs2)cc1OCC,·,·,4,·,-1.1,
CN1CCN(c2ncnc3c2c(-c2ccccc2)cn3-c2ccc(F)cc2)CC1,-31,·,68,6%,0.7,
O=C(NC(=S)Nc1ccc(CN2CCOCC2)cc1)c1ccc(-c2ccc(Cl)cc2)o1,·,·,5,-5%,-4.4,
CN(Cc1cc(=O)n2ccsc2n1)Cc1nc2ccccc2c(=O)[nH]1,7,·,-2,-6%,-1.3,
COc1ccccc1NC(=O)c1cn(C)c(=O)c2cc(OC)c(OC)cc12,3,-29,-5,-5%,12,
Cc1ccc(Cl)cc1Nc1nc(-c2sc(NC(=O)c3ccco3)nc2C)cs1,-10,-2,91,3%,5.8,
Cc1cc(C)nc(N/N=C/c2ccccc2OCc2ccc([N+](=O)[O-])cc2)n1,-7,-21,-7,3%,-0.9,
C/C(CC(=O)Nc1ccc2ccccc2c1)=N\NC(=O)c1cnccn1,-12,-26,99,?,2.1,
CC1Sc2ccc(S(=O)(=O)N3CCC(C(=O)NCc4ccco4)CC3)cc2NC1=O (configuration not stated),·,·,-2,·,0.9,
COc1cccc(-c2c(NC(C)=O)n(C)c3ccccc3c2=O)c1,·,·,3,·,2.3,
Cn1cccc1C(=O)C(=O)Nc1ccccc1C(F)(F)F,-7,·,4,-4%,-1.1,
COc1cc(/C=N/N(C)c2ccccc2)ccc1O,-8,8,93,2%,-1.7,
Cc1ccc(-c2csc(NC(=S)NC(=O)c3ccco3)n2)cc1,4,-14,-3,-2%,-9.3,
CN(C)S(=O)(=O)c1ccc(Cl)c(C(=O)OCC(=O)NC(=O)c2cccn2C)c1,-5,-29,-2,-10%,2.1,
Cc1ccc(OCCn2nnc3ccccc32)cc1C,·,·,-1,·,2.1,
CC(C)Cc1ccc(C(C)C(=N)N)cc1 (configuration not stated),·,·,-5,8%,-0.8,
O=C(Nc1ccc(Cl)cc1C(F)(F)F)c1ccccc1,-5,-33,4,10%,-2.1,
CC(=O)c1c(C(C)=O)c(C)n(-c2nc(-c3cccs3)c(C)s2)c1C,18,-4,-2,0%,·,
COc1cc2c(C(=O)N3CCN(C)CC3)c(C)n(-c3ccccc3)c2cc1Br,-8,16,10,-3%,-0.9,
Cc1ccc(C)c(NC(=O)CCNC(=O)N2C[C@H]3C[C@@H](C2)c2cccc(=O)n2C3)c1,·,·,0,·,-1.2,
CCOc1ccc(C(=O)OC2CC3CCC(C2)N3C)cc1 (configuration not stated),-9,·,-2,·,-1.8,
CCc1nn(-c2ccccc2)c(N)c1-c1ccc(OC)c(OC)c1,4,-18,-7,-2%,-1.2,
O=C(CSc1nnc(CNC(=O)c2c(F)cccc2Cl)o1)Nc1ccc2c(c1)OCO2,14,·,-10,2%,-0.1,
O=C1C=C(c2ccccc2)OC(c2ccccc2)O1 (configuration not stated),-6,·,-2,0%,1.4,
CC(C)c1nc(NCC2CCCO2)c(C#N)c2c1COC(C)(C)C2 (configuration not stated),-7,-4,10,-4%,3.6,
Cc1ccccc1OCCNC(=O)/C=C/c1ccccc1,-4,-11,0,5%,5.8,
Cc1ccc(Nc2c(F)c(F)c(F)c(F)c2C(=O)O)c(C)c1,16,·,-1,-10%,1.6,
Cc1ccc(NC(=O)C2CC(c3ccc(F)cc3)=NO2)cc1 (configuration not stated),-1,-60,-4,14%,-2.6,

# Assay outcomes deposited in PubChem BioAssay by several laboratories.

# This is a subset (hit frequency here may not be typical).
